Compound activity: PubChem, National Center for Advancing Translational Sciences (NCATS)
PINK1 modulator = changes PINK1 expression; PINK1 immunofluorescence, high-content cytometry, 24 h; Potency, µM (series often up to 76.6 µM), without a hit: at the highest dose activation (PINK1 increase), usual class: activators; actives 0.2% (n = 410,000); active = well fitted activation curve with a large enough effect; inconclusive = small, poorly fitted or top-dose-only effect; inactive = flat fitted curve, though single readings scatter; cell line not stated here;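 also: potency is read from the fitted curve at half-maximal effect; % of control where 0% means no effect; nearly all actives have a fitted effect of over 65% in size; a mitochondrial uncoupler was the plate control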
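PINK1 protein level read as immunofluorescence by microplate cytometer in a fixed, stained stable cell line after 24 h exposure to five compound concentrations, with CCCP as control.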
Sfp PPTase inh = inhibitors of Bacillus subtilis Sfp phosphopantetheinyl transferase; Biochemical Sfp PPTase activity, qHTS; Potency, µM, for the others: max response, negative = inhibition, most hits filed as inhibitors; actives 3.5% (n = 310,000); AID 1490; active = well fitted inhibition curve with a large enough effect; inconclusive = small, poorly fitted or top-dose-only effect, or another doubt; inactive = no such curve, though single readings can be large or run the other way;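 also: the enzyme is Sfp with the accession as filed and its product quenches rhodamine fluorescence; potency is read from the fitted curve at half-maximal effect; 0% = enzyme reaction without inhibitor and -100% = no enzyme wells; top concentration of the series not given in the record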
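Buffer: 50 mM Hepes-Na pH 7.6, 10 mM MgCl2, 0.01% Nonidet P-40, 0.01% BSA. Enzyme 15 nM, pre-exposed to compound 15 min; substrates then added and fluorescence change tracked over 30 min.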
TRPML1 agonist = activates the human TRPML1 channel | Q9GZU1 | TRPML1-expressing cells, Ca2+ dye fluorescence, FDSS; host cell line not named in the record; reference of the full effect not given here | activation, % (no concentration beside the values) | actives 0.12% (n = 410,000) | AID 624414; in the data active = activation above about 50%; inconclusive = about 30% to 50%; inactive = below about 30%; also: 0% is about no effect; the text of the record puts the active cut at 80%
Target sequence (Q9GZU1 whole entry, looked up): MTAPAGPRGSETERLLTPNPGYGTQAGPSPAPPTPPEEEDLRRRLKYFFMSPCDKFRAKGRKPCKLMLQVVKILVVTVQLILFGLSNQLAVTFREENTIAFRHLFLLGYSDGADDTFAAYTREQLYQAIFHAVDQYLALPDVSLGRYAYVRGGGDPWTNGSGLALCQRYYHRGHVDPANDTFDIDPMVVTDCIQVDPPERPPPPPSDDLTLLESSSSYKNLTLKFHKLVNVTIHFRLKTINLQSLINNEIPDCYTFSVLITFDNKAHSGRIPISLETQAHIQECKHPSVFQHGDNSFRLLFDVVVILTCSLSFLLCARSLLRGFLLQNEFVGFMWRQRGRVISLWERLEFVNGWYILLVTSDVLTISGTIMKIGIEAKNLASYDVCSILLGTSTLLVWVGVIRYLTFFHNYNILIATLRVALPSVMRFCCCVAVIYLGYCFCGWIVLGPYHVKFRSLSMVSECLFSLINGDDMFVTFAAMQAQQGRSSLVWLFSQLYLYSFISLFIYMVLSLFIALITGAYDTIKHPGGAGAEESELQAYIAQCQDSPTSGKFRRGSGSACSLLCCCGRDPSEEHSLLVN
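TRPML1-DL cells, Tet-induced overnight (~16 h, 37 degrees C), loaded 45-90 min at room temperature with Ca8 no-wash calcium dye plus quencher. FDSS fluorescence: 10 s baseline, compound pin-transfer, 110 s agonist read, then EC80 54-4 (4uM final) and 110 s antagonist read.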
TRPML1 blocker = inhibitors of human TRPML1 channel. Q9GZU1. TRPML1-inducible cells, Ca2+ dye fluorescence, FDSS; active compounds read low; inhibition of EC80 agonist-evoked calcium signal. activity change, negative = inhibition, % (concentration not given with the values). actives 0.02% (n = 390,000); in the data active means activity change below about -50%; inconclusive means about -30% to -50%; inactive means above about -30%;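 also: stimulus is agonist 54-4 at its EC80 concentration; % is scaled to controls: 0 for no effect and ±100 for the full control effect; the text of the record puts the active cut at -80%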
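TRPML1-DL cells, Tet-induced overnight (~16 h, 37 °C) at 1,500 cells/well, were loaded with Ca8 no-wash dye plus quencher for 45-90 min at room temperature. Compounds were pinned during FDSS kinetic reading; agonist 54-4 at EC80 (4 uM final) then added.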
TRPV1 potentiator = potentiators of human vanilloid receptor 1 (TRPV1); actives 0.02% (n = 320,000); Q8NER1; potentiation, % at 8.33 µM; TRPV1-expressing cells, Fluo-8 calcium influx, capsaicin EC20 potentiation; host cell line not named in the record; control for the full effect not named in the record; active means potentiation above 80%; inconclusive means 30% to 80%; inactive means below 30%; also: 0% is about no effect
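TRPV1-expressing cells were cultured overnight at 35.5C and loaded with Fluo-8 calcium dye for 40 to 90 min at room temperature. After a 10 s baseline, compound was added and calcium influx was read kinetically for 3 min (ex 480/em 520 nm).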
Menin MLL FP FL = displaces fluorescein MLL peptide from human menin. Fluorescence polarization, fluorescein-MLL peptide displacement from menin. FP activity change, % at 61.4 µM. 290,000 tested, under 10 active; inconclusive = falling polarisation curve, or a change in total fluorescence; inactive = total fluorescence flat and polarisation flat or rising; no compound was filed as active; the % refers to the polarisation; negative = inhibition;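 also: % of control where 0% means no effect; inhibitors lower the polarisation; unlabelled MLL peptide was the positive control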
ClpP mod = qHTS Assay for Activators of ClpP; ATP-dependent Clp protease proteolytic subunit (Bacillus subtilis (strain 168)), P80244; purified B. subtilis ClpP, FRET peptide cleavage, 20 min; Potency, µM (titrated, usually from 57.5 µM), for inactives: top-dose activity change, negative = active; actives 1.9% (n = 340,000); AID 651965, 2013; active = well fitted falling curve with a large enough effect; inconclusive = small, poorly fitted or top-dose-only effect; inactive = no such curve, though single readings can be large or run the other way; also: potency is read from the fitted curve at half-maximal effect; the source files actives as falling curves though it sought activators and does not explain the sign; nearly all actives have a fitted effect of over 65% in size; many hits overshoot -100%
Target sequence (P80244 whole entry, looked up): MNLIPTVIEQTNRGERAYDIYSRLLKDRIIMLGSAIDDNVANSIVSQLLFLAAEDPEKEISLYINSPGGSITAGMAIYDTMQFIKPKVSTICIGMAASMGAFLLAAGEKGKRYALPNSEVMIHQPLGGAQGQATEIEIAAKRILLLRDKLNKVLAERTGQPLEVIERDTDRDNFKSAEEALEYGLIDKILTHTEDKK
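Buffer: 100 mM Tris/HCl pH8, 100 mM KCl, 0.05% low protease BSA, 2.5% glycerol, 0.01% Tween-20. ClpP 10 microg/mL final; 20 min RT; delta FRET normalized to ADEP and DMSO controls.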
The depositor's hits bear a star; ? = inconclusive; . = not tested or not shown; [ ] = remark or other dose. Hits appear at their usual frequency; overall some 4.4% were active at least once.

Short keys: A = PINK1 modulator; B = Sfp PPTase inh; C = TRPML1 agonist; D = TRPML1 blocker; E = TRPV1 potentiator; F = Menin MLL FP FL; G = ClpP mod
1: NC(=O)CC(NC(=O)Cc1cccc2ccccc12)c1ccc(NCCc2ccc(F)cc2)c([N+](=O)[O-])c1 (configuration not stated)
  A = 3.3%; B = -10%; C = 0.0; D = 18; E = 3; F = 4.8; G = -2.0%

2: COC(=O)C1CN(S(=O)(=O)c2ccccc2)CCN1S(=O)(=O)c1ccccc1 (configuration not stated)
  A = 0.7%[38.3 µM]; B = 10%; C = 0.1; D = -3; E = -6; F = 0.2; G = -2.8%

3: COCCNC(=O)/C(C#N)=C/C=C/c1ccccc1
  A = 1.5%; B = 1%; C = -0.6; D = -4; E = -1; F = 5.3; G = .

4: COc1ccc(C(=O)OCC(=O)NC2CC2)cc1S(=O)(=O)N(C)Cc1ccccc1
  A = 0.4%; B = .; C = -0.6; D = -7; E = 5; F = .; G = -1.6%

5: Cc1ccc(C23CC4CC(CC(C(=O)NC(C)C)(C4)C2)C3)cc1
  A = -0.3%; B = 25%; C = -0.6; D = 25; E = -4; F = -8.6; G = -0.7%

6: O=C(NC(=S)Nc1ccccc1O)c1ccc(Cl)cc1Cl
  A = 14%; B = 8%; C = -1.0; D = 44; E = 1; F = -0.2; G = .

7: Cc1[nH]c(=O)[nH]c1C(=O)CCCCC(=O)OCC(=O)Nc1ccccn1
  A = -0.5%; B = 6%; C = 0.3; D = 10; E = 6; F = -1.7; G = -2.4%

8: O=C(Cc1ccccc1)CC1(O)C(=O)Nc2ccccc21 (configuration not stated)
  A = 21%[38.3 µM]; B = 7%; C = 0.0; D = 8; E = -2; F = -1.9; G = 0.9%

9: CCOC(=O)c1c(CN2CCOCC2)oc2ccc(OC)cc12
  A = -2.3%; B = 9%; C = -1.3; D = 2; E = -2; F = 1.6; G = -11%

10: COc1ccc(-n2c(N)c(-c3nc4ccccc4n3C)sc2=S)cc1
  A = 9.7%; B = -21%; C = 1.1; D = 3; E = 2; F = -0.2; G = 20%

11: COc1cccc(C(=O)Nc2ccc(S(=O)(=O)NCc3ccco3)cc2)c1
  A = 7.8%; B = -5%; C = 1.0; D = -11; E = 12; F = 3.8; G = -4.6%

12: Cc1c(/C=N\NC(=O)c2cccc(F)c2)cnn1C
  A = 1.1%; B = 11%; C = 0.4; D = 6; E = -3; F = 7.8; G = -2.9%

13: O=c1c2nncn2c2cccnc2n1CCNc1ncc(C(F)(F)F)cc1Cl
  A = 0.6%; B = 21%; C = 1.1; D = 4; E = -4; F = 1.8; G = .

14: CCSc1nnc(NC(=O)c2cccnc2)s1
  A = 5.5%[38.3 µM]; B = 10%; C = -0.7; D = 2; E = 6; F = 0.6; G = -0.1%

15: CC(C)(C)NC(=S)N1CCC(C(=O)c2ccc(F)cc2)CC1
  A = 0.6%; B = 18%; C = -0.6; D = 0; E = 12; F = 1.0; G = 0.4%

16: COc1ccc(S(=O)(=O)N2CCCC2CNC(=O)C(=O)NCc2ccccc2)cc1 (configuration not stated)
  A = 5.8%; B = .; C = 1.6; D = 28; E = 4; F = .; G = .

17: COc1ccc(-c2nc(SCC(=O)N3CCOCC3)n[nH]2)cc1
  A = -2.2%; B = 18%; C = 0.9; D = -6; E = -4; F = 5.9; G = 16µM*

18: CC(=O)NC(=S)Nc1ccc(NC(=O)c2cccs2)cc1
  A = -0.2%; B = 0%; C = 1.2; D = -23; E = -2; F = 3.1; G = -3.0%

19: CN1C(=O)N(C)C2(c3ccccc3)Nn3c(s/c(=C/c4ccco4)c3=O)=NC12c1ccccc1 (configuration not stated)
  A = 1.3%[38.3 µM]; B = -15%; C = 0.6; D = 10; E = -21; F = ?; G = -2.1%

20: COc1ccc(-n2nc3c(c2NC(=O)c2ccc4c(c2)OCO4)CS(=O)(=O)C3)cc1
  A = -0.4%; B = -16%; C = -0.5; D = 11; E = 1; F = -1.9; G = -4.8%

21: O=C(NCCc1cnccn1)C1CCC(=O)N(Cc2ccc(Cl)cc2)C1 (configuration not stated)
  A = -1.9%; B = 3%; C = -0.5; D = 16; E = -10; F = .; G = -0.7%

22: CCOC(=O)CCCN(c1[nH]c(C)c(C)c1C#N)S(=O)(=O)c1ccc(C)cc1
  A = 0.3%; B = .; C = 0.5; D = -4; E = .; F = .; G = 0.1%

23: COc1ccc(NC(=O)c2cc3c(s2)CCC(C)C3)cc1S(=O)(=O)N1CCOCC1 (configuration not stated)
  A = -0.6%; B = -3%; C = 2.1; D = 5; E = 5; F = 9.8; G = -8.8%

24: CCCOC(=O)Nc1ccc(S(=O)(=O)Nc2ncccn2)cc1
  A = -1.3%; B = 12%; C = 0.2; D = -4; E = 0; F = 3.3; G = .

25: COc1ccc2cc(C(=O)N3CCN(c4ccccc4F)CC3)[nH]c2c1
  A = 4.4%; B = 5%; C = .; D = .; E = -18; F = -0.6; G = -3.1%

Reprinted from the part before: five entries, followed by the next part.
Short keys: A = PINK1 modulator; B = Sfp PPTase inh; C = TRPML1 agonist; D = TRPML1 blocker; E = TRPV1 potentiator; F = Menin MLL FP FL; G = ClpP mod
21: O=C(NCCc1cnccn1)C1CCC(=O)N(Cc2ccc(Cl)cc2)C1 (configuration not stated)
  A = -1.9%; B = 3%; C = -0.5; D = 16; E = -10; F = .; G = -0.7%

22: CCOC(=O)CCCN(c1[nH]c(C)c(C)c1C#N)S(=O)(=O)c1ccc(C)cc1
  A = 0.3%; B = .; C = 0.5; D = -4; E = .; F = .; G = 0.1%

23: COc1ccc(NC(=O)c2cc3c(s2)CCC(C)C3)cc1S(=O)(=O)N1CCOCC1 (configuration not stated)
  A = -0.6%; B = -3%; C = 2.1; D = 5; E = 5; F = 9.8; G = -8.8%

24: CCCOC(=O)Nc1ccc(S(=O)(=O)Nc2ncccn2)cc1
  A = -1.3%; B = 12%; C = 0.2; D = -4; E = 0; F = 3.3; G = .

25: COc1ccc2cc(C(=O)N3CCN(c4ccccc4F)CC3)[nH]c2c1
  A = 4.4%; B = 5%; C = .; D = .; E = -18; F = -0.6; G = -3.1%

26: CC(C)NC(=O)C1(C)CCN1Cc1ccc(Cl)cc1 (configuration not stated)
  A = 1.2%; B = .; C = -0.8; D = .; E = .; F = .; G = -0.4%

27: CC(=O)Oc1ccccc1Cn1c(C)c(C(=O)N(C)Cc2ccc(F)cc2)sc1=O
  A = 1.2%; B = .; C = -0.1; D = .; E = .; F = .; G = 0.5%

28: c1ccc(COC2CCCN(Cc3nc(-c4cnccn4)no3)C2)nc1 (configuration not stated)
  A = 1.0%; B = ?; C = 0.3; D = 1; E = 9; F = 3.2; G = -0.5%

29: COc1ccc(Cn2c(=O)c3oc4ccccc4c3n(Cc3cccc(F)c3)c2=O)cc1
  A = -0.9%; B = .; C = 0.3; D = 10; E = .; F = .; G = ?

30: CC(=O)N(c1ccc(C)cc1)C1C=CS(=O)(=O)C1 (configuration not stated)
  A = -0.4%; B = -4%; C = -0.5; D = -11; E = .; F = 2.8; G = -2.0%

31: O=C(Oc1ccc2c(-c3ccccc3)cc(=O)oc2c1)c1cccs1
  A = -0.3%; B = -2%; C = 1.4; D = 1; E = -10; F = 10; G = .

32: CCOC(=O)C1CCCN(Cc2c(C(=O)N3CCOCC3)nc3ccccn23)C1 (configuration not stated)
  A = 3.9%; B = 3%; C = -0.6; D = -10; E = 2; F = 0.9; G = .
